# High-throughput results: PubChem, National Center for Advancing Translational Sciences (NCATS)
# Menin-MLL FL inh – displaces fluorescein MLL peptide from human menin; AID 1766; 290,000 tested, under 10 active; FP activity change, % at 61.4 µM; Fluorescence polarization, fluorescein-MLL peptide displacement from menin; inconclusive = falling polarisation curve, or a change in total fluorescence; inactive = total fluorescence flat and polarisation flat or rising; no compound was filed as active; the % refers to the polarisation; negative = inhibition;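 further: % of control where 0% means no effect; inhibitors lower the polarisation; unlabelled MLL peptide was the positive control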
# TRPML1 blocker – inhibitors of human TRPML1 channel | actives 0.02% (n = 390,000) | TRPML1-inducible cells, Ca2+ dye fluorescence, FDSS; stronger effect = lower value; inhibition of EC80 agonist-evoked calcium signal | activity change, negative = inhibition, % (concentration not given with the values); in the data active means activity change below about -50%; inconclusive means about -30% to -50%; inactive means above about -30%;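 further: stimulus is agonist 54-4 at its EC80 concentration; on the % scale 0 is the no-effect control and ±100 the full control effect; compound concentration not given in the record; the text of the record puts the active cut at -80%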
#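 Tet-induced TRPML1-DL cells loaded with Ca8 no-wash calcium dye were read kinetically on FDSS. Compound addition was followed by EC80 agonist 54-4 (4 uM final); inhibition was read over 110 s.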
# gsp antagonist – antagonists of gsp mutant (McCune-Albright syndrome); gsp-mutant cells, cAMP HTRF, 30 min; control for the full effect not named in the record; Potency, µM (titrated, usually from 76.9 µM), without a hit: at the top dose activity change, negative = inhibition, usual class: inhibitors; actives 0.4% (n = 340,000); active = falling curve of any shape with a large fitted effect; inconclusive = falling curve, mostly with a smaller effect; inactive = flat or rising curve; cell line not stated here;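 further: intracellular cAMP measured with PDE inhibitor Ro 20-1724 present during compound exposure; potency means the concentration at half of the fitted maximal effect; on the % scale 0 is the no-effect control and ±100 the full control effect; nearly all actives have a fitted effect of over 65% in size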
#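 Cells, 2000/well, grown 16–24 h in DMEM 10% FBS with 0.5 mg/ml G418, then compounds plus […] (300 uM addition stock), 30 min at 37C. cAMP read by HTRF (cAMP-d2 and anti-cAMP antibody-K in lysis buffer) after 30 min RT.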
# gsp agonist – agonists of gsp mutant (McCune-Albright syndrome); gsp mutant cells, cAMP HTRF, 30 min; control for the full effect not named in the record; Potency, µM (series often up to 76.9 µM), for the others: at the highest dose activation (cAMP increase), actives largely listed as activators; actives 0.13% (n = 340,000); AID 624287; active = well fitted activation curve with a large enough effect; inconclusive = small, poorly fitted or top-dose-only effect, or another doubt; inactive = no such curve, though single readings can be large or run the other way; cell line not stated here;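 further: phosphodiesterase inhibitor Ro 20-1724 added with compounds to block cAMP breakdown; potency means the concentration at half of the fitted maximal effect; nearly all actives have a fitted effect of over 60% in size; about a fifth of the inactives were tested at one dose only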
#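 Cells in DMEM/10% FBS with G418 were pretreated with compounds in DMSO plus […] (300 uM stock) for 30 min at 37C. cAMP was measured by HTRF (cAMP-d2 plus anti-cAMP antibody-K) after 30 min at room temperature.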
# TRPV1 PAM – human TRPV1 potentiation; Q8NER1; TRPV1-expressing cells, Fluo-8 calcium influx, capsaicin EC20 potentiation; host cell line not named in the record; control for the full effect not named in the record; potentiation, % at 8.33 µM; actives 0.02% (n = 320,000); AID 540277; active means potentiation above 80%; inconclusive means 30% to 80%; inactive means below 30%; further: 0% is about no effect
# Target sequence (Q8NER1 whole entry, looked up): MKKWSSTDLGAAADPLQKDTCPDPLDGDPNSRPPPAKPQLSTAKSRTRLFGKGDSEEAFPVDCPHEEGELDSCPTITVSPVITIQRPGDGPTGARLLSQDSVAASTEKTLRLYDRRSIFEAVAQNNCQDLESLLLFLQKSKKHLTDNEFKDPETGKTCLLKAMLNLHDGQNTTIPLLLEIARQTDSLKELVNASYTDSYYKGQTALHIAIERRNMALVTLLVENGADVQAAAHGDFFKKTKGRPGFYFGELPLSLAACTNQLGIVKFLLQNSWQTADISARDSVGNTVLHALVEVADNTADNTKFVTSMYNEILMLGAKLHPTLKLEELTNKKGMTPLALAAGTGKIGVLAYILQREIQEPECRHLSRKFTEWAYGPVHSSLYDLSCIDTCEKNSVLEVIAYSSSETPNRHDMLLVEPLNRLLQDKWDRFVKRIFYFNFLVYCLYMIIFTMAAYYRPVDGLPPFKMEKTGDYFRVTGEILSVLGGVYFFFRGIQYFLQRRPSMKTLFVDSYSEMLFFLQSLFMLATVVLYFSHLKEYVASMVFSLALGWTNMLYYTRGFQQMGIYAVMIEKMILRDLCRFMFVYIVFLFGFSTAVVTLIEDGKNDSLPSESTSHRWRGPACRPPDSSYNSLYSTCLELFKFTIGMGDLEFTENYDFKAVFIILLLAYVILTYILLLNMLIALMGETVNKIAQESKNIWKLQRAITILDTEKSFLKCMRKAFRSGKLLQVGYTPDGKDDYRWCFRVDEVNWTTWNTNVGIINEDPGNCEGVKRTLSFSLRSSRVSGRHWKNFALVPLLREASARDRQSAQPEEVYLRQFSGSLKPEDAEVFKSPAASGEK
#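 TRPV1-expressing cells were cultured overnight at 35.5C and loaded with Fluo-8 calcium dye for 40 to 90 min at room temperature. After a 10 s baseline, compound was added and calcium influx was read kinetically for 3 min (ex 480/em 520 nm).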
# ClpP mod – qHTS Assay for Activators of ClpP; ATP-dependent Clp protease proteolytic subunit (Bacillus subtilis (strain 168)), P80244; purified B. subtilis ClpP, FRET peptide cleavage, 20 min; Potency, µM (series often up to 57.5 µM), for the others: at the highest dose activity change, negative = active; actives 1.9% (n = 340,000); active = well fitted falling curve with a large enough effect; inconclusive = small, poorly fitted or top-dose-only effect; inactive = no such curve, though single readings can be large or run the other way; further: potency means the concentration at half of the fitted maximal effect; the source files actives as falling curves though it sought activators and does not explain the sign; nearly all actives have a fitted effect of over 65% in size; many hits overshoot -100%
# Target sequence (P80244 whole entry, looked up): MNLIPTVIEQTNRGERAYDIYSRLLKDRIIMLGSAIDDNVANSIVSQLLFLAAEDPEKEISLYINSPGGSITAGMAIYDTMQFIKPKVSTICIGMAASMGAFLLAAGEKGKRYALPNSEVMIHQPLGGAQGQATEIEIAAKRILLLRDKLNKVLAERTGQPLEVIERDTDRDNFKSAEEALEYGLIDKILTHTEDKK
#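 Buffer: 100 mM Tris/HCl pH8, 100 mM KCl, 0.05% low protease BSA, 2.5% glycerol, 0.01% Tween-20. ClpP 10 microg/mL final; 20 min RT; delta FRET normalized to ADEP and DMSO controls.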
# Sfp inh – blocks B. subtilis Sfp PPTase activity | Biochemical Sfp PPTase activity, qHTS | actives 3.5% (n = 310,000) | Q9F4F7 | AID 1490 | Potency, µM, for inactives: max response, negative = inhibition, actives largely listed as inhibitors; active means well fitted inhibition curve with a large enough effect; inconclusive means small, poorly fitted or top-dose-only effect, or another doubt; inactive means no such curve, though single readings can be large or run the other way;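 further: the enzyme is Sfp with the accession as filed and its product quenches rhodamine fluorescence; potency means the concentration at half of the fitted maximal effect; 0% = enzyme reaction without inhibitor and -100% = no enzyme wells; top concentration of the series not given in the record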
#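 Fluorescence-quenching assay with 15 nM Sfp, 5 uM rhodamine-CoA and 12.5 uM BHQ-2-labelled ybbR peptide in pH 7.6 Hepes/MgCl2 buffer. Enzyme was pre-incubated with compound for 15 min at room temperature. Rate was taken from the 30-min fluorescence change (525/598 nm).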
# * marks the source's active call; other numbers are inactive results; ? = inconclusive; . = no result given; & = joins results of further samples; [ ] = another dose, or the depositor's remark.
smiles,Menin-MLL FL inh,TRPML1 blocker,gsp antagonist,gsp agonist,TRPV1 PAM,ClpP mod,Sfp inh
COc1cc(C2C(C(=O)c3ccc(C)o3)=C(O)C(=O)N2CCc2ccccc2)ccc1O (stereo not given),8.3,9,-16%,10%[15.4 µM],5,-0.5%,8%
CCCn1cc(CN2CCC(n3nccc3NC(=O)C(OC)c3ccccc3)CC2)c(C)n1 (stereo not given),1.4,-12,12%,3%,-6,-2.7%,7%
Cc1ccc(NC(=O)c2cc3nc(C)cc(C)n3n2)cc1,0.1,-8,-13%,-38%[inhibitor],-1,-28%,1%
COc1ccccc1C(=O)Nc1ccc(OC(C)C(=O)N2CCOCC2)cc1 (stereo not given),.,-15,-2%,?,1,0.2%,.
Cc1cc[n+](C2=C([O-])c3ccccc3C(=O)/C2=N\S(=O)(=O)c2cccs2)cc1C,-1.9,2,3%,10%,?,.,-16%
COc1ccc(CCCc2nnc(SCC(=O)Nc3cc(C)ccc3C)o2)cc1,-1.6,1&25,-6%,-50%[inhibitor],-7,-0.8%&-4.3%,-11%
Cc1ccc2c(c1)N(CC(=O)NC1CCC(C)CC1)C(=O)c1cccnc1O2 (stereo not given),-3.9,-13,-10%,-59%[inhibitor],-2,-0.1%,4%
NC(=O)NOCc1ccc(F)cc1Cl,-5.5,10,10%,1%,3,.,-7%
CCN(C(=O)CN1CCN(c2ccccc2OC)CC1)c1c(N)n(Cc2ccccc2)c(=O)[nH]c1=O,-0.8,-13,5%,17%,2,-1.5%,-3%
COc1ccc(/C=C/C(=O)c2c(O)cc(C)oc2=O)c(OC)c1,?,13,-34%,-31%,9,0.1%,22%
CC(C)c1ccc(N(C)C(=O)Cc2c(C(=O)O)n(C)c3ccccc23)cc1,1.3,-20,-6%,-26%,3,-15%,6%
CCOc1ccc(NC(=O)C2CCCCN2S(=O)(=O)c2ccccc2)cc1 (stereo not given),-1.7,3,?,0%,-18,4.2%,10%
COc1cc2c(cc1NC(=O)Cn1cnc3c1c(=O)n(C)c(=O)n3C)oc1ccccc12,5.4,.,.,.,5,.,?
COc1cc(C(=O)c2ccc3c(c2)OCO3)cc(OC)c1OC,.,-1,12%,?,.,.,.
CCN(CC)S(=O)(=O)c1ccc(N2CCN(CCO)CC2)nc1,1.2,6,10%,-8%,4,-16%,-2%
Cn1c(SCC(=O)Nc2ccc3c(c2)n(C)c(=O)n3C)nnc1-c1ccncc1,.,1,-6%,-4%[15.4 µM],7,.,18%
O=C(NCCN1CCOCC1)c1ccc(CS(=O)(=O)c2ccc(Cl)cc2)o1,1.7,9,1%,19%,-6,-1.2%,8%
CC(C)(C)C1(C)OC(=O)C(=Cc2ccc(OCC(=O)Nc3ccccc3)cc2)C(=O)O1 (stereo not given),0.5,-7,-5%,8%,-11,2.1%,6%
CC(=O)c1sc(NCc2ccccc2)nc1C,-9.1,31,3%,13%[15.4 µM],15,.,-4%
Cc1c(NC(=O)C(C)OC(=O)/C=C/c2ccc(OC(F)F)cc2)c(=O)n(-c2ccccc2)n1C (stereo not given),.,24,-3%,-9%,-12,-1.7%,.
Cc1nn(CCCC(=O)NCc2ccc(Cl)cc2)c(C)c1[N+](=O)[O-],1.9,-6,3%,-47%[inhibitor],-21,-1.5%,6%
CCCCN1C(=O)C(CC(=O)NCCc2ccccn2)CC(C(=O)N(C)C)=C1C (stereo not given),.,-12,.,-7%,.,-3.1%,.
Cc1cc(C(=O)COC(=O)c2ccc(F)cc2F)c(C)n1C1CC1,.,-7,5%,-35%[inhibitor],-23,-1.0%,.
O=C(N/N=C/c1ccccn1)c1cc(-c2ccccc2Cl)n[nH]1,2.7,17,-4%,-14%,-9,-0.3%,7%
CCC1=NN2C(=N)/C(=C\c3ccc(OCCOc4ccc(NC(C)=O)cc4)c(OC)c3)C(=O)N=C2S1,2.8,11,4%,0%[15.4 µM],20,0.6%,7%
O=c1oc(-c2ccc(Br)cc2)nc2ccccc12,0.6,-9,-3%,1%[15.4 µM],4,0.8%,19%
COc1cccc(C(=O)Nc2nc3c(s2)CN(C)CC3)c1,2.2,9,0%,29%,14,-2.4%,1%
Cc1ccc(CNC(=O)CSc2nc3ccsc3c(=O)n2NC(=O)c2ccccc2)cc1,0.2,35,-18%,-5%,5,0.8%,6%
COc1cc(NC(=O)c2cccs2)c(C(=O)OCC(=O)NCc2ccco2)cc1OC,2.5,-2,-11%,-30%[inhibitor],-8,-8.2%,?
CCOC(=O)C1CCN(CC(=O)Nc2ccc(OC)c(S(=O)(=O)N3CCCCC3)c2)CC1,.,1,-11%,-5%,.,21%,.
CCS(=O)(=O)N1CCC(C(=O)NCc2ccccc2OC)CC1,-0.7,6,3%,-13%,-3,0.6%,11%
Nc1nc(-c2cccnc2)nn1C(=O)Cc1ccccc1,-2.4,60,-9%,3%,-4,-4.1%,10%
Cc1cc2c(ncn2C)c(NS(=O)(=O)c2cc(Cl)ccc2Cl)c1C,2.0,-4,?,7%,5,-1.5%,7%
Fc1ccccc1-c1nc(-c2ccccc2)no1,0.6,20,-12%,-33%[inhibitor],8,-0.9%,7%
CC(=O)Cc1nsc(Nc2ccc3c(c2)OCCO3)n1,-1.2,-11,-4%,6%,-11,1.0%,-1%
CCCCc1ccc(NC(=O)C(=O)NCCN2CCN(Cc3ccc([N+](=O)[O-])cc3)CC2)cc1,-5.8,?,7%,15%,1,-1.3%,15%
O=C1OCCC1Sc1nnc(-c2ccccc2Br)n1Cc1ccccc1 (stereo not given),2.4,10,-21%,19%,2,-2.0%,0%
CC(=O)/C(N=Nc1cc(C)ccc1O)=C(\C)O,?,8,.,7%[15.4 µM],-13,.,-2%
CCSc1nc2ccc(OC)cc2cc1C#N,0.2,26,15%,24%,-6,-24%,3%
NC(=O)Nn1c(CCC(=O)O)ccc1-c1ccc(F)cc1,9.2,22,-3%,3%,.,-20%,?
CN1C(C(=O)NCc2ccccc2)CC2Cn3c(nc4cc(Cl)c(Cl)cc43)C21 (stereo not given),-1.4,1,-5%,.,-11,1.2%,7%
Cc1ccc2nc(-c3ccncc3)c(Nc3ccccc3)n2c1,5.5,-1,-14%,-7%,10,-8.6%&-14%,3%
CCN(CC)C(=O)c1[nH]cnc1C(=O)NCC(=O)OCc1ccccc1,-2.7,4,-9%,3%,-17,-0.5%,5%
Cc1cccc(C)c1C(=NCCCN(C)C)c1ccccc1,6.1,0,12%,4%,-20,-0.7%,8%
CN1CCN(c2cc3c(c4c2[nH]c2ccccc24)C(=O)CC(C)(C)C3)CC1,3.3,-3,-3%,1%,2,?,?
CCCc1cc(=O)oc2c(C)c(OC3CCCCC3=O)ccc12 (stereo not given),-6.2,16,5%,-14%,17,-13%,10%
Cc1ccc(NC(=O)CN(C)S(=O)(=O)c2cccc3nsnc23)cc1Cl,-1.5,1,-25%,-32%[inhibitor],-7,0.6%,9%
Cc1cc(C)n2nc3nc4c(cc3c2n1)CCCC4,?,10,19%,14µM*,-4,13µM*,-23%
O=C(NCCCN1CCOCC1)c1ccc2c(c1)N(Cc1cccc(Cl)c1)C(=O)c1ccccc1S2=O (stereo not given),-4.8,17,-19%,6%,-6,0.0%,-3%
CS(=O)(=O)N1CCN(c2ccc([N+](=O)[O-])c(NCc3ccccc3)c2)CC1,4.9,26,-6%,-22%,-6,0.9%,2%
Cc1cc2nc(CS)[nH]c2cc1C,-0.3,-6,-2%,-39%[inhibitor],17,-1.2%,40µM*
O=C(O)c1cc(-c2ccco2)nc2cc3ccccc3cc12,?,22,-9%,-4%[15.4 µM],-9,.,11µM*
Cc1ccc(CSCCNS(=O)(=O)c2ccccc2)cc1,1.8,-4,-17%,-54%[inhibitor],2,-1.8%,1%
CC(C)(C)OC(=O)NCCc1nnc(SCc2ccc(Cl)cc2)o1,1.5,0,8%,-2%,-3,1.0%,7%
COc1ccc2sc(-c3ccc(S(C)(=O)=O)cc3)c(C#Cc3cncn3C)c2c1,.,37,?,20%,.,-8.3%,.
COc1ccccc1C(=O)NCCC(=O)N(C)CC(=O)Nc1ccccc1Br,.,-2,8%,7%,?,-0.9%,.
Cc1ccc(N2CC(C(=O)Nc3c4c(nn3C(C)(C)C)CS(=O)(=O)C4)CC2=O)cc1 (stereo not given),.,-7,7%,-37%,5,-2.5%,8%
c1ccc(-c2cc(N3CCCCC3)ncn2)cc1,-0.8,5,-3%,15%,-4,-4.1%,1%
CCOc1ccc(CNS(=O)(=O)c2cc(-c3cc(C)no3)ccc2OC)cc1OC,.,-1,5%,7%,0,-0.4%,2%
CSc1ccc(CNCC(O)c2ccccc2)cc1 (stereo not given),1.2,-7,5%,-22%[15.4 µM],-5,.,3%

# (cont.)
smiles,Menin-MLL FL inh,TRPML1 blocker,gsp antagonist,gsp agonist,TRPV1 PAM,ClpP mod,Sfp inh
O=C(OCc1nnc(-c2ccccc2)o1)C1CC(=O)N(Cc2ccco2)C1 (stereo not given),-2.1,-15,-1%,13%,-3,-2.6%,-10%
CCCCNc1ccc(C(=O)Nc2cccc(C)n2)cc1[N+](=O)[O-],2.1,-19,-5%,?,-10,-4.0%,-3%
c1ccc(-n2ncc3c(N4CCN(CCOc5cccc6ccccc56)CC4)ncnc32)cc1,-1.4,4,-7%,2%,19,?,7%
COCCn1cnnc1SCC(=O)Nc1ccc(Br)cc1F,-3.0,32,7%,6%[15.4 µM],0,-3.2%,15%
COc1ccc(/C=N/NC(=O)CNC(=O)COc2ccccc2)cc1,0.9,3,11%,26%,21,-0.3%,3%
Cc1nnc(SCCN2CCOCC2)n1-c1cccc(Cl)c1,1.4,0,-7%,9%,-10,2.9%,-22%
CC(Oc1ccc(Br)cc1)C(=O)Nn1c(=S)[nH]c2ncccc2c1=O (stereo not given),3.6,.,.,.,3,.,13%
O=C(O)CSc1nc2ccc(Cl)cc2[nH]1,-1.4,-16,7%,-6%,?,25µM*,12%
